# From PubChem BioAssay
# Biofilm kill mix: mixtures killing C. albicans biofilm. C. albicans biofilm persisters + clotrimazole, fluorescence viability; primary screen in compound mixtures of four per well. inhibition, % at 7.6 µM. 120,000 compounds, 0.02% hits;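 active = inhibition above 30.3% in the primary screen of four-compound pools, then above 30% when the compound was retested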;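 also: compounds exposed to preformed 24 h biofilms for 48 h; the number belongs to the whole pool; some results filed as inactive read as strong as hits; inactives centre near 12; 0% = biofilm with clotrimazole alone and 100% = kill control; retested singly at about 60 µM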
#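 Probe or stimulus – Clotrimazole 50 µg/mL co-treatment · System – C. albicans biofilms · Schedule – 24 h biofilm formation, then 48 h compound exposure, 37 °C · Evaluation – percent inhibition of biofilm viability · Technique – 2-h Alamar Blue fluorescence, 535/590 nm excitation/emission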
# An asterisk follows results filed as active. A portion of the library; rates above refer to the full screens.
SMILES,Biofilm kill mix
COc1ccc(/C=C/C(=O)NC(=S)Nc2ccc(S(=O)(=O)Nc3nccnc3OC)cc2)cc1,16
NC(=O)c1cc(N=Nc2c(N)[nH]n(-c3c(Cl)cc(Cl)cc3Cl)c2=O)ccc1Cl,15
Brc1ccccc1OCCCCCN1CCOCC1,9
Cc1ccc(-c2nc3ccccc3nc2NN)cc1,19
CCOC(=O)c1c(NC(=O)COC(=O)CNC(=O)c2ccco2)sc(C(C)=O)c1C,19
S=c1[nH]nc(-c2cc(-c3ccccn3)nc3ccccc23)o1,18
COCCn1c(N)c(N(Cc2ccccc2)C(=O)c2ccc(C#N)cc2)c(=O)[nH]c1=O,18
O=C1/C(=C/c2cccnc2)SC(=S)N1CCc1ccccc1,16
C/C=C\C=C/C(=O)Nc1cccc(C2=NOC3(C2)C[C@@H](C(N)=O)N(C(=O)[C@H]2CCC(=O)N2)C3)c1 (some centres not stated),13
COC(=O)C1=C(C)NC(=O)/C1=C\c1cc(C)n(-c2ccccc2)c1C,16
Cc1ccc(N2C(=O)CC(Nc3ccc(Cl)c(S(=O)(=O)N(C)C)c3)C2=O)c(C)c1 (configuration not stated),9
O=C(O)CC(NC(=O)C1c2ccccc2Oc2ccccc21)c1ccc(OC2CCCC2)cc1 (configuration not stated),20
COc1ccc(C2CC(=O)n3nc(C45CC6CC(CC(C6)C4)C5)nc3S2)cc1OC (configuration not stated),12
O=C(O)/C=C\C(=O)NC1CCCCC1,12
CCOC(=O)c1sc(NC(=O)CNCc2cccnc2)c(C(=O)OCC)c1C,-12
CN1C(=O)/C(=C\c2ccc(-c3ccccc3)o2)SC1=S,24
Cc1nc2c3ccccc3nc(SCC(=O)c3ccc(Cl)cc3)n2n1,14
CCC(=O)Nc1cc(C(C)(C)C)ccc1C(C)=O,21
O=C(NCc1ccco1)c1cc(-c2cccs2)nc2ccccc12,7
O=S(=O)(NCC(c1cccnc1)N1CCOCC1)c1cccs1 (configuration not stated),6
Cc1nc(=S)c2c([nH]1)-c1ccccc1CC21CCCCC1,20
CCCCN(CC)C(=O)CSc1nc2n[nH]c(C)c2c(=N)n1-c1cccc(C)c1,8
CCn1c(C)nc2cc(C(=O)N/N=C/c3cccc(O)c3O)ccc21,14
CCCNCc1cc(Cl)c(OCC)c(Cl)c1,18
CCc1ccc(CC2(O)CC(C)N(C)CC2C)cc1 (configuration not stated),4
# Other structures:
SMILES,Biofilm kill mix
CC(C)N1CCC(=NNC(=O)c2ccccc2[N+](=O)[O-])CC1,9
O/N=C/c1ccc(OCc2ccccc2)c(Cl)c1,-14
CN(CC(=O)Nc1ccc(Cl)cc1)Cc1cc(=O)n2ccsc2n1,10
CC(=O)Nc1ccc(NC(=O)/C=C/c2ccccc2)cc1,17
CC(C)(C)C(=O)Nc1cc(S(=O)(=O)Nc2ccc(Cl)cc2)ccc1Cl,-1
CCN(CC)S(=O)(=O)c1cccc(NC(=S)NC(=O)/C=C/c2ccc(S(=O)(=O)N3CCOCC3)cc2)c1,7
Cc1ccc(N2C(=O)CS/C2=N\C(=S)Nc2ccccc2)cc1,-11
Cc1nc2ccc(-c3nc4ccc(N)cc4[nH]3)cc2[nH]1,21
O=c1cc(-c2ccc(O)cc2)oc2c([C@@H]3O[C@H](CO)[C@@H](O)[C@H](O)[C@H]3O)c(O)c([C@@H]3O[C@H](CO)[C@@H](O)[C@H](O)[C@H]3O)c(O)c12,6
Cc1cc(C)c(S(=O)(=O)n2nc(C)c(Br)c2C)c(C)c1,16
COC(=O)Cn1nc(C)c2ccccc2c1=O,7
COc1ccc(NCC(=O)n2c(C)c(C)c3ccccc32)cc1OC,16
Cc1ccc(S(=O)(=O)N(c2ccc(Br)cc2)C2C=CS(=O)(=O)C2)cc1 (configuration not stated),13
CN1CCN(C(=O)CN(c2cccc(Br)c2)S(=O)(=O)c2ccccc2)CC1,14
Cc1ccc(Cn2nc(C)cc2C(=O)Nc2ccc(Cl)cc2)cc1,19
Cc1ccc(/C=N/NC(=O)C[n+]2ccccc2)o1,23
CN(C)/C=C1/C=C(C=O)OC1=O,6
C=C(C)CNC(=S)N/N=C/c1ccco1,7
C=CCn1c(SCc2ccccc2Cl)nnc1-c1sc2nc(C)cc(C)c2c1N,12
Cc1c(CNC(=O)C2CC2)c(-n2cccc2)n(Cc2ccccc2)c1C,6
Cc1c(NN=C(C#N)C#N)c(=O)n(-c2ccccc2)n1C,8
O=C(c1ccoc1)N1CCC2(CC1)Oc1ccc(Cl)cc1C(=O)C21CC(c2cccnc2)=NO1 (configuration not stated),7
C/C(=N\NC(=O)c1cc([N+](=O)[O-])cc([N+](=O)[O-])c1)c1ccco1,26
COc1ccc(C2Nc3ccccc3C(=O)N2NS(=O)(=O)c2ccccc2)cc1 (configuration not stated),16
O=C(O)CN1C(=O)SC(Nc2ccccc2)C1=O (configuration not stated),12
# More records.
SMILES,Biofilm kill mix
O=C(Cc1ccc(Cl)cc1)Nc1ccc2oc(=O)ccc2c1,15
Cc1ccc(NC(=O)OCc2cc(-c3ccccc3)on2)cc1,10
COc1cc(OC)c(N(C)S(=O)(=O)c2cccc(C(=O)OCC(=O)NCc3ccco3)c2)cc1Cl,14
Cc1ccc(NC(=O)C(OC(=O)c2ccc(O)cc2)c2ccccc2)cc1Cl (configuration not stated),11
O=c1ccc(C(F)(F)F)cn1Cc1cc(=O)n2cc(Br)ccc2n1,-6
O=C(COC(=O)c1ccc2ccccc2n1)c1ccccc1,12
COc1ccc(CNCC(O)(c2ccc(F)cc2)c2ccc(F)cc2)cc1,12
COCCCNC(=S)N1CCN(C)CC1,19
COc1ccc(S(=O)(=O)n2[nH]c(=O)c(CCO)c2C)c([N+](=O)[O-])c1,6
Cc1ccc(C2N=C(N)Nc3nc(=O)c4ccccc4n32)cc1 (configuration not stated),8
Cc1nc(C(=O)N2CCc3c([nH]c4ccccc34)C2c2ccccn2)cs1 (configuration not stated),6
Cn1c(-c2ccccc2)c[n+]2c1CCCCC2,16
CC1CC(C)CN(CCOc2cccc(Cl)c2Cl)C1 (configuration not stated),20
O=c1[nH]cnc2c1N=C(c1cccc([N+](=O)[O-])c1)CC(c1ccccc1)N2 (configuration not stated),12
Cc1ccc(NC(=O)CSc2nnc([C@H](C)NC(=O)OC(C)(C)C)o2)c(C)c1,3
COCCNC(=O)CNC(c1ccccc1)c1ccccc1,15
CNc1nc(N)nc(OC(C(F)(F)F)C(F)(F)F)n1,15
O=C(NCC1CCCO1)c1ccc(OC2CCN(C(=O)C3CC3)CC2)cc1 (configuration not stated),3
Nc1[nH]c(=S)nc2nc(-c3ccccc3)c(-c3ccccc3)nc12,7
CCN(CC(=O)Nc1cccc(C(C)=O)c1)S(=O)(=O)c1ccccc1,4
CCNC(=O)NC(=O)C(C)OC(=O)[C@H](C)NS(=O)(=O)c1c(C)c(C)cc(C)c1C (some centres not stated),15
O=C(NCCc1ccc(Cl)cc1)Nc1ccc(F)cc1,11
CCN(CC)C(=O)C(=O)Nc1ccc(OCc2ccccc2)cc1,1
COCCCNC(=O)/C(C#N)=C1\N=C(NC(=O)c2cccs2)c2ccccc21,18
O=C(CSc1nc(-c2ccccc2)cs1)Nc1cccc([N+](=O)[O-])c1,26
# Next section.
SMILES,Biofilm kill mix
CN1CCN(C(c2ccccn2)c2cc(Cl)c3cccnc3c2O)CC1 (configuration not stated),17
Brc1ccc(C2=NC(Cc3ccccc3)CO2)cc1 (configuration not stated),16
OCCNCc1cccc2ccccc12,16
O=C(CSc1nnc(CCCN2C(=O)c3cccc4cccc(c34)C2=O)n1-c1ccccc1)NCCCO,2
C/C(=N\Nc1ccccn1)c1cccs1,18
O=C(O)C1CCN(Cc2cccnc2)CC1,16
Cc1ccsc1C(=O)N1CCN(S(=O)(=O)c2cccs2)CC1,12
Cc1ccc(N2C(=S)SC3CS(=O)(=O)CC32)cc1 (configuration not stated),10
Cc1nn(CC(=O)N2c3ccccc3NC(=O)C2(C)C)c(C)c1[N+](=O)[O-],11
COc1ccccc1NC(=S)N(CCN(C)C)C(C)c1ccncc1 (configuration not stated),18
Cc1ccc(NC(=O)Cn2cnc3c(oc4nc5c(cc43)COC(C)(C)C5)c2=O)cc1,1
Cc1cccc(C(=O)Oc2ccccc2/C=N/Nc2ccc([N+](=O)[O-])cc2)c1,17
Cc1c(C(=O)O)cnc2c([N+](=O)[O-])cnn12,12
Cc1cc(C)cc(N=c2c([N+](=O)[O-])nn(-c3ccc(Cl)cc3)n2O)c1,13
CCON1C(=O)C(C)(C)N(OCC)C(=O)C1(C)C,16
C=CCc1ccccc1OCC(O)CNC(=O)c1ccccc1C(=O)O (configuration not stated),23
Cc1ccc2c(c1)Oc1ccccc1C=C2C(=O)O,-1
Cc1c(C)n(CCC#N)c2ccccc12,17
Cc1ccc(CNC(=O)COC(=O)c2cc3c(s2)CCC(C)C3)cc1 (configuration not stated),12
COc1ccc(-c2cc(C(F)(F)F)c(C#N)c(SCC(=O)O)n2)cc1,6
COc1ccc(NC(=O)N(Cc2cc3cc(OC)c(OC)cc3[nH]c2=O)CC2CCCO2)cc1 (configuration not stated),4
COC(=O)c1nnn(-c2cccc(Cl)c2)c1C(=O)OC,5
O=C(O)CC1(CC(=O)NCc2ccc(-c3cccs3)cc2)CCCCC1,6
COc1ccc(N=C2CCS(=O)(=O)c3sccc32)cc1,4
COc1ccc(Cn2c(=S)[nH]c3ccccc32)cc1,-20
# (cont.)
SMILES,Biofilm kill mix
O=C(Nc1cccnc1)c1cccc(-c2cc3ccccc3oc2=O)c1,12
Cc1ccc(C(=O)NC(NC(=S)Nc2ccc(S(N)(=O)=O)cc2)C(Cl)(Cl)Cl)cc1 (configuration not stated),6
Cc1ccc(-c2nc3c(c(=O)[nH]c(=O)n3Cc3ccccc3)n2C)o1,15
COc1ccccc1NS(=O)(=O)c1cccc(C(=O)NN=C2CCCC2)c1,11
COc1ccc(/C=C/C(=O)c2cc(F)ccc2OC(=O)c2ccccc2C)cc1OC,19
S=c1[nH]nc(-c2ccncc2)n1/N=C/C=C/c1ccco1,12
Cc1ccc(CN2CCN(/N=C/C(Br)=C\c3ccccc3)CC2)cc1,10
COc1ccc(CC(=O)NCc2n[nH]c(=S)n2-c2ccccc2)cc1,2
CC(C)OC(=O)/C(C#N)=C/c1cn(C)c2ccccc12,20
O=C(O)CCC(=O)N1CCCC1,-18
CN(C)C(=O)/C(=C\c1ccc(-c2cccc([N+](=O)[O-])c2)o1)NC(=O)c1ccccc1,10
O=C(O)c1ccc2c(c1)C(=O)N(NC(=O)c1ccc(O)cc1)C2=O,2
CCCOC(=O)c1ccc(NC(=O)C(=O)NCCN(CC)CC)cc1,9
Cc1ccc(-c2nnc(/C=C/c3ccccc3)o2)cc1,13
CN(CCO)c1ncnc2c1sc1nc(N3CCOCC3)c3c(c12)CCC3,20
COc1ccc(-c2cc3nc4n(c(=O)c3s2)CCCCC4)cc1,16
Cc1ccnc2nc(C(=O)Nc3nnc(-c4ccc(Cl)cc4)o3)nn12,12
O=C(NC1CCCCC1)c1ccccc1NC(=S)NC(=O)C1CC1,5
CN1CCC(OC(=O)c2ccco2)CC1,29
CCO/N=C(/C)c1c(O)cc(-c2ccccc2)n(-c2ccccc2)c1=O,7
Cc1cc(/C=C2\SC(=S)N(C)C2=O)c(C)n1-c1ccc(O)cc1,7
CC(=O)Nc1sc(C)c(C)c1CN1CCN(Cc2ccccc2)CC1,14
CCN1CCC(CNCc2cn(-c3ccc(OC)cc3)nc2-c2ccccc2Cl)C1 (configuration not stated),7
COC(=O)c1cc(C(=O)c2cc(Cl)ccc2O)coc1=N,5
NCCCC[C@H]1NC(=O)[C@H](CCC(=O)O)NC(=O)c2cc([N+](=O)[O-])cc(I)c2OCC[C@@H](C(N)=O)NC1=O,16

# Two entries picked at random from those above:
SMILES,Biofilm kill mix
Cc1ccc(C(=O)NC(NC(=S)Nc2ccc(S(N)(=O)=O)cc2)C(Cl)(Cl)Cl)cc1 (configuration not stated),6
Cc1ccc(CN2CCN(/N=C/C(Br)=C\c3ccccc3)CC2)cc1,10

# 20 entries from above, reformatted:
SMILES | Biofilm kill mix
O=C(Nc1cccnc1)c1cccc(-c2cc3ccccc3oc2=O)c1 | 12
Cc1ccc(C(=O)NC(NC(=S)Nc2ccc(S(N)(=O)=O)cc2)C(Cl)(Cl)Cl)cc1 (configuration not stated) | 6
Cc1ccc(-c2nc3c(c(=O)[nH]c(=O)n3Cc3ccccc3)n2C)o1 | 15
COc1ccccc1NS(=O)(=O)c1cccc(C(=O)NN=C2CCCC2)c1 | 11
COc1ccc(/C=C/C(=O)c2cc(F)ccc2OC(=O)c2ccccc2C)cc1OC | 19
S=c1[nH]nc(-c2ccncc2)n1/N=C/C=C/c1ccco1 | 12
Cc1ccc(CN2CCN(/N=C/C(Br)=C\c3ccccc3)CC2)cc1 | 10
COc1ccc(CC(=O)NCc2n[nH]c(=S)n2-c2ccccc2)cc1 | 2
CC(C)OC(=O)/C(C#N)=C/c1cn(C)c2ccccc12 | 20
O=C(O)CCC(=O)N1CCCC1 | -18
CN(C)C(=O)/C(=C\c1ccc(-c2cccc([N+](=O)[O-])c2)o1)NC(=O)c1ccccc1 | 10
O=C(O)c1ccc2c(c1)C(=O)N(NC(=O)c1ccc(O)cc1)C2=O | 2
CCCOC(=O)c1ccc(NC(=O)C(=O)NCCN(CC)CC)cc1 | 9
Cc1ccc(-c2nnc(/C=C/c3ccccc3)o2)cc1 | 13
CN(CCO)c1ncnc2c1sc1nc(N3CCOCC3)c3c(c12)CCC3 | 20
COc1ccc(-c2cc3nc4n(c(=O)c3s2)CCCCC4)cc1 | 16
Cc1ccnc2nc(C(=O)Nc3nnc(-c4ccc(Cl)cc4)o3)nn12 | 12
O=C(NC1CCCCC1)c1ccccc1NC(=S)NC(=O)C1CC1 | 5
CN1CCC(OC(=O)c2ccco2)CC1 | 29
CCO/N=C(/C)c1c(O)cc(-c2ccccc2)n(-c2ccccc2)c1=O | 7
